# Source: PubChem BioAssay (ICCB-Longwood Screening Facility, Harvard Medical School)
# AID504770: growth inhibition of E. coli YBA685, primary screen, V. cholerae RctB inhibitors; E. coli YBA685 rctB-dependent plasmid, OD600 growth, 3 h; hits give low values; z-score (test concentration not listed); actives 0.27% (n = 130,000); AID 504770, 2011;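 active = z-score under -2 on both plates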;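 note: wells of about 30 µL received 100 nL stock; score is relative to mean and SD of the test wells; the first replicate is given; strong numbers were not always called active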
# CapD inh: Bacillus anthracis CapD inhibitors, primary screen, biochemical, fluorescence intensity. actives 0.23% (n = 140,000). CapD gamma-glutamyltranspeptidase (Bacillus anthracis Ames Ancestor). purified CapD enzyme, fluorescence intensity read-out; hits give low values; some hits fall short of the stated cut. z-score (no concentration beside the values);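 active = z-score under -4 in either of two replicates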;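 note: stock transfer was 100 nL into about 40 µL; score is relative to mean and spread of the plate; one replicate is shown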
# * = called active by the depositor; i = inactive; . = not tested or not shown; & = joins results of further samples.
SMILES,AID504770,CapD inh
CCCn1c(N)c(C(=O)CN2CCc3ccccc3C2)c(=O)[nH]c1=O,1.1,.
Cc1nc(N2CCOCC2)c2c(C)c(C(=O)Nc3ccc4c(c3)OCCO4)sc2n1,.,-1
O=c1[nH][nH]c(=S)n1C1Cc2ccccc2C1,-0.8,-0.64
S=C1CCCN1c1ccccc1,1.4,-0.18
Cc1cc(C)c(OCC(=O)Nc2cc(-c3nc4ncccc4o3)ccc2C)c(Cl)c1,0.15,-0.81
CCCCSC1=C(C#N)C(=O)NC(c2ccc(OC)cc2)S1 (stereo not given),-0.75,-1.3
Cc1nc2ccccc2nc1SCC(=O)O,-0.75,-1.1
COCC(Cc1ccccc1)NC(=O)c1ccc(C)cc1 (stereo not given),.,0.45
CCOC(=O)N1CCC(NC(=O)c2cc3n(n2)C(C(F)(F)F)CC(c2ccc(Cl)cc2)N3)CC1 (stereo not given),.,-0.21
Cc1ccc(-n2ncc(C(=O)NCCCN3CCCCC3)c2-n2cccc2)cc1,0.05,-0.075
Cc1ccccc1Nc1nc(NCCN(CC(C)C)CC(C)C)nc2c1cnn2C,0.65,1
O=C(Cc1ccccc1)NCC(=O)N1CCN(c2ccccc2)CC1,-0.9,-0.55
N#CCc1c(C#N)c(N)nc(N2CCCC2)c1C#N,-1,.
CCCc1cc(=O)[nH]c(SCC(=O)NCC23CC4CC(CC(C4)C2)C3)n1,-0.4,0.075
Nc1ncc(C(F)(F)F)cc1C(F)(F)F,-0.25,-0.63
CCCn1c(=O)c2c(C(F)(F)F)cc(-c3ccco3)nc2n(CCC)c1=O,-0.5,.
O=C(O)CC1(CC(=O)Nc2cccc(C(=O)O)c2)CCCC1,-0.85,-0.035
CCc1cccc(NC(=O)c2ccccn2)c1,0.6,.
CC(C(=O)OCC(=O)c1ccc(F)cc1)N1C(=O)C2C3C=CC(C3)C2C1=O (stereo not given),2.3,-0.7
CS(=O)(=O)c1ccc(CN(Cc2ccccn2)C(=O)c2cccs2)cc1,.,-0.085
COc1ccc(OC(=O)OCC(C)C)cc1,0,0.34
COC(=O)c1ccccc1SCC#N,.,2.3
CC(C)(C)C(=O)CSc1nc2c(cc1C#N)N1CCC2CC1,-0.6,0.12
Cc1cccc(-c2nnc(NC(=O)Cc3ccccc3)s2)c1,-0.2,i
CCN(CC)CCSc1nnc2c3cc(C)ccc3n(C)c2n1,0.75,-1.1
CCOC(=O)c1sc2ncnc(N3CCC(C(=O)OCC)CC3)c2c1C,.,0.94
Cc1ccc(C(C)C)c(OCCOc2cccc(-c3nc4sc5c(c4c(=O)[nH]3)CCCC5)c2)c1,.,-0.19
CC1(c2ccc(Cl)cc2)CC(C)(C)N(C(=O)c2cccnc2)c2ccccc21 (stereo not given),-0.15,0.63
O=C(NCc1ccc2c(c1)OCO2)c1ccc(Cn2cc(Cl)cn2)cc1,0.35,0.28
O=C1CC(c2ccccc2)n2nc(NS(=O)(=O)c3ccccc3)nc2N1 (stereo not given),0.55,0.52
CN(C(=O)c1ccc2c(=O)n3c(nc2c1)CCCCC3)c1ccccc1,1.6,-1.2
CNCC(=O)Nc1ccccc1C(F)(F)F,0.1,.
Nn1cnnc1SC(CNS(=O)(=O)c1ccc(Cl)cc1)c1ccccc1 (stereo not given),1,.
O=C(CCn1c(=O)oc2ccccc21)NC1CCCCC1,-0.4,.
COC(=O)Sc1nnc(-c2ccc(C)cc2)o1,-0.55,0.58
CCCOC(=O)CC1Sc2ccc(C(F)(F)F)cc2NC1=O (stereo not given),1.5,.
COC(=O)C1CN(C(=O)c2ccccc2Cl)c2ccccc2O1 (stereo not given),0.2,0.06
Cc1cc(NCCN2CCOCC2)nc2ccccc12,-0.5,8.3
Cc1cccc(CSc2nc3ccncc3n2CC(=O)NCc2ccco2)c1,-0.2,0.26
O=C1C(=Cc2ccc(O)cc2)C(=O)c2ccccc21,1.6,-0.85
N#Cc1ccc(/C=C2/N=C(SCC(=O)N3CCCC3)N(C3CCCCCC3)C2=O)cc1,0.4,.
O=C(CSc1nnc(-c2ccc(C(F)(F)F)cn2)s1)Nc1ccccc1,-0.45,7.3
NS(=O)(=O)c1ccc(C(=O)N/N=C/c2c[nH]c3cc(OCc4ccccc4)ccc23)cc1,.,-1.8
CCN1C(=O)C(C(=O)N(Cc2ccccc2)Cc2ccccc2)C2CC1(C)Oc1ccccc12 (stereo not given),-0.05,-0.3
COc1ccc(Cn2c(O)c(/C=N/Nc3nc(C)cc(C)n3)c3ccccc3c2=O)cc1,-3.6,.
CCOc1ccc(N/C(SCc2ccccc2Cl)=C(/C#N)C(=O)NCc2ccco2)cc1,.,-0.11
Cc1[nH]nc(NC2=CC(=O)CC(C)(C)C2)c1-c1ccc(Cl)cc1,-0.35,-0.1
COC(=O)c1cc(NC(=O)c2cc3cc([N+](=O)[O-])ccc3oc2=O)cc(C(=O)OC)c1,.,0.2
Cc1ccc2oc(=O)n(CC(=O)O)c2c1,-0.65,.
CCN(CC(=O)c1ccc(C#N)cc1)C1CCCCC1,-0.25,.
O=C(CC1Sc2ccccc2NC1=O)Nc1ccccc1 (stereo not given),0.25,0.21
O=c1c(C=NCCCN2CCOCC2)c(CSc2ccc(Cl)cc2)[nH]n1-c1nc2ccccc2s1,.,-0.59
Cc1ccn2c(NS(=O)(=O)c3ccc4c(c3)OCCO4)c(-c3cccs3)nc2c1,0.55,.
COC(=O)CCC(=O)Nc1ccc(F)cc1,-1.2,0.17
CSC1=NSC2=NS(=O)(=O)CCN12,-1.4,.
CN(C)C(=S)Nc1ccc2c(c1)OCO2,1.6,0.48
COc1ccc(C2C(C#N)=C(N)Oc3cc(C)n(CCc4ccc(OC)c(OC)c4)c(=O)c32)cc1 (stereo not given),-1.1,0.31
Fc1ccc(Oc2ncnc3sccc23)c(Cl)c1,0.3,0.28
Cc1csc(-c2c(C)oc3cc(O)ccc3c2=O)n1,-0.45,-0.15
CCCOc1ccc2cc(C(=O)c3ccccc3)c(=N)oc2c1,0.2,-0.23

# Of the compounds above, these have an aryl thioether with sulfur outside any ring:
SMILES,AID504770,CapD inh
Cc1nc2ccccc2nc1SCC(=O)O,-0.75,-1.1
CCCc1cc(=O)[nH]c(SCC(=O)NCC23CC4CC(CC(C4)C2)C3)n1,-0.4,0.075
COC(=O)c1ccccc1SCC#N,.,2.3
CC(C)(C)C(=O)CSc1nc2c(cc1C#N)N1CCC2CC1,-0.6,0.12
CCN(CC)CCSc1nnc2c3cc(C)ccc3n(C)c2n1,0.75,-1.1
Nn1cnnc1SC(CNS(=O)(=O)c1ccc(Cl)cc1)c1ccccc1 (stereo not given),1,.
Cc1cccc(CSc2nc3ccncc3n2CC(=O)NCc2ccco2)c1,-0.2,0.26
O=C(CSc1nnc(-c2ccc(C(F)(F)F)cn2)s1)Nc1ccccc1,-0.45,7.3
O=c1c(C=NCCCN2CCOCC2)c(CSc2ccc(Cl)cc2)[nH]n1-c1nc2ccccc2s1,.,-0.59

# Continuation.
SMILES,AID504770,CapD inh
CNC(=S)NNC(=O)c1cccn(Cc2cccc(C(F)(F)F)c2)c1=O,.,3.3
COc1ccc(OC(=O)/C=C/c2sc3ccccc3c2C)cc1,-0.05,-1.2
O=C(CCn1c(=S)oc2ccccc21)N1CCn2c(nc3ccccc32)C1,-0.15,-3
CCOC(=O)C1=C(C)Nc2ccccc2N=C1NC(=O)c1oc2ccccc2c1COC,-0.45,.
COCCOC(=O)C1=C(N)OC(C)=C(C(C)=O)C12C(=O)Nc1ccccc12 (stereo not given),.,-0.27
CCn1c(CCNC(=O)C2CCCCC2)nc2ccccc21,0.05,-0.42
CCOC(=O)Cn1nc2n(c1=O)-c1ccccc1SC2,-0.7,-1.1
OCCNc1ncnc2nc[nH]c12,-0.3,-0.59
O=C(CN(C(=O)Cn1nnc(-c2ccc(F)cc2)n1)c1ccccc1C(F)(F)F)NCc1ccco1,0.95,.
CCOc1ccc(N2C(=O)NC(=O)/C(=C\c3cc(Br)c(N4CCOCC4)o3)C2=O)cc1,.,0.17
CCOc1ccc2c(c1)-c1c(ss/c1=N\NC(=O)c1cccnc1)C(C)(C)N2,-0.75,-1.8
CCn1nccc1C(=O)Nc1ccc(C)c(C)c1,1.9,-0.15
CCOC(=O)c1nnc2cc(C)nn2c1C,.,-0.59
CN1CCN(C(=O)c2nn3c(C(F)(F)F)cc(-c4ccc(Br)cc4)nc3c2Cl)CC1,.,0.57
CC(C)n1c(-c2ccccc2)nc2ccccc21,1.1,-0.31
CCNCC(O)c1cccc(O)c1 (stereo not given),-0.45,0.085&-0.92
CS(=O)(=O)c1ccc(-n2cc(-c3cnc4ccccc4n3)cn2)cc1,.,14
Cc1ccc(C(=O)Nc2cccc(/C=N/N3CCOCC3)c2)cc1,0.1,.
COc1ccc(C2(CN)CCOCC2)cc1,-0.2,.
CN(C)S(=O)(=O)N1CCCc2ccccc21,-0.05,0.53
FC(F)(F)c1cccc(OCCO/N=C2/COc3ccc4ccccc4c32)c1,.,3.1
CC1CCCN(CC(=O)c2ccc(Cl)s2)C1 (stereo not given),-0.6,.
O=C(Nc1ccccc1)c1cc2ccccc2oc1=O,-0.3,i
NS(=O)(=O)c1ccc(CCNc2ccc3nnc(-c4ccccc4)n3n2)cc1,1.6,-0.27
CN1C(=S)SC(N2OC3C(=O)N(c4ccccc4)C(=O)C3C2c2ccc([N+](=O)[O-])cc2)C1(C)C (stereo not given),.,-0.27
Cc1cccc(N(C)S(=O)(=O)c2cnc[nH]2)c1,-0.95,-0.19
O=c1nc2c(-c3cccc(C(F)(F)F)c3)n[nH]n2c2ccccc12,0,-0.35
CONS(=O)(=O)c1ccc(OCC(=O)OC)cc1,-0.85,0.16
COc1cc2c(cc1OC)C(C)=NC1(CCCCC1)C2,.,79
CCOC(=O)C1=C(CC)Nc2ccccc2N=C1NC(=O)C1Cc2ccccc2CN1S(=O)(=O)CC (stereo not given),0.85,.
Cc1cccc(N=C(N2CCOCC2)P(=O)(N2CCOCC2)N2CCOCC2)c1,0.15,.
CC(=O)N(CN1C(=O)C2C3c4ccccc4C(c4ccccc43)C2C1=O)c1ccccc1 (stereo not given),.,-0.18
O=C(Nc1sc2c(c1C(=O)Nc1ccccc1)CCCCC2)c1ccncc1,.,1.4
CN(CC(=O)OC1CCOC1=O)S(=O)(=O)c1ccc(Cl)cc1 (stereo not given),0.2,.
Cc1ccc(CS(=O)(=O)c2ccccc2-c2nnc(-c3ccc(Cl)cc3)o2)cc1,1.8,0.26
COc1ccc(C(CC(=O)NC2CC2)n2cccc2)cc1 (stereo not given),1.1,-1.3
CCc1ccc(NC(=O)Cn2nc(-c3ccc(OC)cc3)ccc2=O)cc1,-0.45,0.4
O=C(Cn1cccc1)N1CCN(C(c2ccccc2)c2ccccc2)CC1,0.5,0.1
O=C(Cc1ccc(Cl)cc1)c1ccc(Cl)cc1,-0.7,-0.88
Cc1cc(C)c(C#N)c(N2CCCN(S(=O)(=O)c3ccc(F)cc3)CC2)n1,.,5.3
COc1cccc(NC(=O)N(Cc2cc3ccc(C)cc3n3nnnc23)CC2CCCO2)c1 (stereo not given),1.3,.
Cc1ccc(NC(=O)C(C)Sc2nc(=O)cc(N)n2CCc2ccccc2)cc1 (stereo not given),2.1,0.06
N#Cc1ccc(-c2ccc(Cl)cc2)nc1SCc1ccc(Cl)cc1,.,2.3
CCS(=O)(=O)N1CCN=C1SCc1ccc(Cl)cc1Cl,-0.25,-0.45
COc1ccc(OC)c(NC(=O)CSc2nc3n[nH]c(C)c3c(=N)n2-c2cccc(Cl)c2)c1,.,-0.14
COC1=CC(=O)O[C@@H](/C=C/c2ccccc2)C1,.,-0.37
Cc1ccc(Nc2nc(C)nc3c2oc2ccccc23)cc1,2.3,13
Cc1cccc(C)c1NC(=O)CCC(=O)O,0.1,.

# Ordered by number of heavy atoms (smallest number first): part of the list above.
SMILES,AID504770,CapD inh
Fc1ccc(Oc2ncnc3sccc23)c(Cl)c1,0.3,0.28
CN(CC(=O)OC1CCOC1=O)S(=O)(=O)c1ccc(Cl)cc1 (stereo not given),0.2,.
O=C(Cc1ccccc1)NCC(=O)N1CCN(c2ccccc2)CC1,-0.9,-0.55

# The listing continues:
SMILES,AID504770,CapD inh
Cc1nc(-c2cccnc2)nc(N(C)C)c1Cl,-0.55,0.71
CCCC1CC(C)(c2csc(NCC)n2)OC1=O (stereo not given),-0.8,.
Brc1ccc(Cn2c3ccccc3c3nc4cc5ccccc5cc4nc32)cc1,.,2.3
Cc1ccc(C)c(NC(=O)C2CC2(c2ccccc2)c2ccccc2)c1 (stereo not given),.,-0.6
CCCCn1c(=O)c(CC)c(O)c2ccccc21,.,6.2
O=C(NC1CCCCC1)c1c[nH]c2ccccc2c1=O,-0.4,0.63
CCCCNC(=O)c1cccc(N2CCCC2=O)c1,-0.5,0.15
Cc1ccc(S(=O)(=O)N2CCCN(c3nc4ccc(Cl)cc4s3)CC2)cc1[N+](=O)[O-],.,-0.68
COc1ccc(C(=O)N2CCC(C(=O)Nc3ccc4c(c3)OCCO4)CC2)cc1,-0.2,0.23
CCOc1ccc(/C(O)=C2\C(=O)C(=O)N(Cc3cccnc3)C2c2ccc(N(C)C)cc2)c(C)c1 (stereo not given),-0.7,-0.14
CCOC(=O)c1c(C)n(C)c2ccc(OC(=O)NC3(C(F)(F)F)Oc4ccc(Cl)cc4O3)cc12 (stereo not given),.,-0.27
COC(=O)c1ccccc1NC(=O)CC1Sc2ccccc2NC1=O (stereo not given),-0.4,.
CCCCC(C(=O)Nc1cc(C)ccc1C)N1C(=O)C2C3c4ccccc4C(c4ccccc43)C2C1=O (stereo not given),.,-0.23

# This is a subset (hit frequency here may not be typical).
